From PubChem BioAssay
rRNA inh HTS – reduced GFP signal of wild-type E. coli, primary screen, bacterial rRNA inhibitor project, GFP/RFP fluorescence, OD600, single point; E. coli WT GFP vs humanized-ribosome RFP mutants, 24 h; stronger effect = lower value; DMSO median 0, no signal -100; GFP signal change (wild-type ribosome), % (test concentration not listed); 350,000 tested, 1.6% active; AID 720706, 2013;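 active = significant combined selectivity score with lowered wild-type GFP, culture density cut under 30%, mutant RFP and density less affected; inactive = any of these conditions unmet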; note: one replicate is shown; some compounds called inactive have numbers as strong as hits
Beta cell apopt – inhibitors of cytokine-induced beta cell apoptosis, primary screen, luminescence; 300,000 tested, 0.8% active; AID 435005, 2010; INS-1E cytokine-induced death, ATP luminescence, 48 h; percent of positive-control rescue, neutral wells zero; protection from apoptosis, % (concentration not given with the values);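 active = all replicates at 75% or more, or half of them and the mean; inconclusive = half reach 75% but not the mean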;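 note: 0% = cytokine-treated negative control wells and 100% = positive control rescue; higher means more ATP so stronger rescue from cytokine killing; wells of about 40 µL received 100 nL stock; the first replicate is given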
A1 inh – caspase 3/7 activation in MEF A1-2A-BIM cells, primary screen, A1 inhibitor project, cell-based, luminescence, HTS; Caspase-Glo 3/7 luminescence, 3 h; percent of clofoctol response, vehicle zero; caspase activation, % (test concentration not listed); 330,000 tested, 0.066% active;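 active = over half of replicate activation scores above 10%, or exactly half above 10 with the replicate mean above 10; inconclusive = replicate mean below 10 yet half the replicates above 10; inactive = over half of replicates below 10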;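 note: wells of about 30 µL received 50 nL stock; many hits fall short of the cut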
FGF22 binding – binders of human FGF22 protein, primary screen, FGF22 synaptogenesis inhibitor project, biophysical, thermal shift, single point; Fibroblast growth factor 22 (Homo sapiens), Q9HCT0; recombinant FGF22 thermal shift, SYPRO orange fluorescence; percent of sucrose octasulfate shift, DMSO zero; calls only at 9.99 µM; 340,000 tested, 1.5% active;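 active = melting point raised past a set limit in the mean and every replicate; inconclusive = no clear call; three in four hits are not shown here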
Target sequence (Q9HCT0 whole entry, looked up): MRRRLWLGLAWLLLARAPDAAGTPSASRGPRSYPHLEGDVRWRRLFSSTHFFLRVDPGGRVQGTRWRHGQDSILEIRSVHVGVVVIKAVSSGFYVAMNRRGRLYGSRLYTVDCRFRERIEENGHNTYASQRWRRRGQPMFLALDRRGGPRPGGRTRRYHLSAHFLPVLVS
T cruzi repl – inhibitors of intracellular T. cruzi growth, primary screen, luminescence, NIH3T3 host cells; T. cruzi beta-gal in NIH3T3, 90 h; 300,000 tested, 1.4% active; inhibition, % (no concentration beside the values);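 active = mean inhibition across valid replicates above about 55%, limit read from the data; inconclusive = mean below that limit but half or more replicates reach it; inactive = mean below it, under half of replicates reach it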;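 note: signal also drops with host cell toxicity which is not excluded here; 0% = plate median of DMSO wells and 100% = zero luminescence signal; higher percent means less beta-gal luminescence so fewer parasites; stock transfer was 50 nL into about 50 µL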
MLL AF4-AF9 inh – inhibitors of AF4 peptide binding to AF9, primary screen, biochemical, AlphaScreen, biotin-AF4 peptide, FLAG-AF9, single point; Protein AF-9 (Homo sapiens), P42568; inhibition, % at 10 µM; 350,000 tested, 0.47% active;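 active = every replicate reaching a set inhibition limit, whatever the replicate mean, cut at about 25% in these data; inconclusive = mean inhibition reaches that limit but some replicates miss it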;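 note: 0% = plate neutral control median and 100% = total signal loss; the record names both 10 and 1 µM as test concentration; the first replicate is given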
Target sequence (P42568 whole entry, looked up): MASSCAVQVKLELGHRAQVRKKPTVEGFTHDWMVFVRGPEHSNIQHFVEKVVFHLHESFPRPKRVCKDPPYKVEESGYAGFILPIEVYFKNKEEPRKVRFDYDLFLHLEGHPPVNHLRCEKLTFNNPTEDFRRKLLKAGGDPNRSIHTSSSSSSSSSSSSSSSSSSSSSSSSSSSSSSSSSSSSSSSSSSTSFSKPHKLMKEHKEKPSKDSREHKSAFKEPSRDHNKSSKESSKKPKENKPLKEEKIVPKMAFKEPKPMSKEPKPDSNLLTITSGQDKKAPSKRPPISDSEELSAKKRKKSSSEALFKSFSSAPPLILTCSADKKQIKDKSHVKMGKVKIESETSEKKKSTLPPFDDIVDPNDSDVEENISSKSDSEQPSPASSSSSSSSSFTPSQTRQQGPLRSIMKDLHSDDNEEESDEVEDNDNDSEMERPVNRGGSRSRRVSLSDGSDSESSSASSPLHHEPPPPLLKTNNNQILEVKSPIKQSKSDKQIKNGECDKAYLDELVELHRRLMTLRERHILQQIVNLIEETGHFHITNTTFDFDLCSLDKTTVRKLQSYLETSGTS
UCH37 DUB inh – inhibitors of human UCH37 deubiquitinase, primary screen, biochemical, Ub-AMC cleavage, fluorescence | inhibition, % (test concentration not listed) | 330,000 tested, 0.33% active | Ubiquitin carboxyl-terminal hydrolase isozyme L5 (Homo sapiens), Q9Y5K5 | purified proteasome/UCH37;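 active = mean of two replicates above 20%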;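 note: 0% = compound-free wells with enzyme and 100% = wells lacking proteasome; stock transfer was 100 nL into about 20 µL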
Target sequence (Q9Y5K5 whole entry, looked up): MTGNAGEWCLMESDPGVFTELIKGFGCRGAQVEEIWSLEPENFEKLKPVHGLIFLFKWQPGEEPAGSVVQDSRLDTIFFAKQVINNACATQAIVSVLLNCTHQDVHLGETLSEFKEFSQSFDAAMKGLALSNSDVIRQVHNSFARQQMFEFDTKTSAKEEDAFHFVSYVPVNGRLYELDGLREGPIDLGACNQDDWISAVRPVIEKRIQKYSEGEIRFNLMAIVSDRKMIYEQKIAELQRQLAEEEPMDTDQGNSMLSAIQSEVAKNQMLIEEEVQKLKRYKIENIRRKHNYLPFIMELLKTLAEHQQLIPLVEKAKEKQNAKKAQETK
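system = Proteasome-associated human UCH37 deubiquitinase | amount = 0.15 nM proteasome as dispensed | medium = pH 7.4 Tris-HCl (50 mM) with ovalbumin, ATP-MgCl2, DTT | incubation = 30 min preincubation with enzyme, 25 min cleavage at room temperature | detection = AMC fluorescence 355/460 nm | read-out basis = percent inhibition | controls = no-proteasome and no-compound wells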
Ecoli growth – E. coli growth inhibition, primary screen, OD600 | AID 1053175, 2014 | 330,000 tested, 0.21% active | Escherichia coli growth, 23 h; stronger effect = lower value | OD600 absorbance (no concentration beside the values);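 active = OD600 absorbance below the run mean of sample wells minus 3.6 SD, in any replicate, cut at about 0.56 in these data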;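 note: stock transfer was 300 nL into about 60 µL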
rRNA inh HTS OD600 – second read-out of rRNA inh HTS, no call of its own (marks repeat the call); OD600 change, %; measured here: OD600 growth;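 optical density of the mix in the first replicate; 0 = DMSO median and -100 = no signal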
rRNA inh HTS RFP – further read-out of rRNA inh HTS, marked with its call; RFP signal change, %; measured here: RFP humanized mutant strains;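 first replicate; 0 = DMSO median and -100 = no signal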
Starred values were filed as active, the others as inactive; i = inactive; ? = inconclusive; . = no result given. Some of the compounds tested; the hit share may differ from the screen's.

SMILES	rRNA inh HTS	rRNA inh HTS OD600	rRNA inh HTS RFP	Beta cell apopt	A1 inh	FGF22 binding	T cruzi repl	MLL AF4-AF9 inh	UCH37 DUB inh	Ecoli growth
CC1Cc2ccccc2N1S(=O)(=O)c1cccc2nsnc12 (centres undefined)	.	.	.	-2	-0.2	.	13	.	7.1	0.7
COc1cc(-c2nnc(-c3cc(OC)c(OC)c(OC)c3)o2)cc(OC)c1OC	.	.	.	8	-0.1	.	19	.	-83	0.81
COc1ccc(OC)c(-c2cn(S(=O)(=O)c3ccccc3)nc2N)c1	.	.	.	-7	-3.3	.	-8	.	-0.3	0.73
NC(=O)C1(N2CCCCC2)CCN(Cc2nc3ccccc3c(=O)[nH]2)CC1	.	.	.	-1	0.2	.	1	.	-6.5	0.72
CCOC(=O)c1[nH]c2ccc(OCC)cc2c1CCCN1C(=O)c2ccccc2C1=O	.	.	.	-4	-0.4	.	11	.	1.3	0.73
CN1CCN(C(=O)CNC(=O)c2cccs2)CC1	7	11	-4.4	-7	1.3	i	.	-1.4	2.6	0.69
CC(=O)c1ccc(OCCCC(=O)n2nnc3ccccc32)cc1	.	.	.	-3	-1.2	.	3	.	-0.6	0.72
CCn1nc(C(=O)N2CCN(Cc3nc4ccccc4s3)CC2)c2ccccc2c1=O	0	-6	-1.4	-4	-1.2	i	.	0.1	0.6	0.72
Cc1ccc(S(=O)(=O)N(C)C)cc1NC(=O)COC(=O)c1ccc2c(c1)OCCO2	-4	-6	3.1	-4	-0.1	i	-4	-1.9	1.7	0.63
NC(=O)c1ccc(NS(=O)(=O)c2ccc3ccccc3c2)cc1	-3	-15	-4.9	-1	-0.5	i	11	-20	2.1	0.67
CCOc1ccccc1N(CC(=O)NCc1ccco1)C(=O)CCC(=O)Nc1nccs1	.	.	.	-4	1.1	i	7	1.2	2.9	0.65
CC1(C)CC(=O)C(=Cc2cn(-c3ccccc3)nc2-c2ccc(Cl)cc2)C(=O)C1	.	.	.	-5	0.5	.	0	.	-1.1	0.66
CNC(=S)Nc1ccc(Nc2ccccc2)cc1	.	.	.	4	-0.2	.	-26	.	5.3	0.7
C=CCn1c(C(C)NC(=O)c2cccs2)n[nH]c1=S (centres undefined)	8	1	11	2	-1.8	i	-2	4.0	3.0	0.68
Cc1ccc(S(=O)(=O)N2[C@@H](c3ccc(F)cc3)C(C(=O)O)=CC[C@H]2c2cccc(C)c2)cc1	-25*	-8.4*	-10*	-1	1.8	i	.	0.1	0.8	.
COc1ccc(N2CCN(C(=O)c3ccc(CSc4ccccc4)cc3)CC2)cc1	11	-2	-2.4	2	-1.9	i	1	-2.6	1.7	0.73
CN1Cc2ccccc2N(CC(=O)NCc2ccccc2)C1=O	-4	-3	-1.0	0	-0.1	i	3	-9.9	-1.2	0.74
Cc1ccc2nc(Cn3cc(C(F)(F)F)ccc3=O)cc(=O)n2c1	8	8	0.1	-8	-0.1	i	-5	0.4	-36	0.72
O=CN1Cc2ccccc2-c2ccccc2C1	-11	-6	-12	-4	-0.3	i	0	-0.8	6.0	0.62
Cn1cnnc1SCNC(=O)C(F)(F)F	.	.	.	1	-0.2	.	-13	.	3.5	0.66
CCC(=O)c1ccc(OCC(O)CN2CCN(S(=O)(=O)c3ccc(NC(C)=O)cc3)CC2)cc1 (centres undefined)	-11	-15	-1.0	0	-0.1	i	-10	1.6	0.7	0.69
C=CCN1C(=O)CSc2ccc(C(=O)N3CCC(C)CC3)cc21	.	.	.	-8	-0.3	.	-11	.	1.3	0.67
CC(=O)Oc1ccc(NC(=O)CSc2ccccc2)cc1	11	1	-1.2	-9	-2.8	i	-21	0.9	-0.5	0.64
O=S1(=O)C=C(Sc2nc3ccccc3s2)c2ccccc21	.	.	.	122*	?	.	69*	.	5.4	0.66
Cc1nc2n[nH]c(N)c2c2c1CCCC2	6	4	-0.2	-6	-0.2	i	18	6.1	4.7	0.63
Cc1cccc(Oc2sc(C(=O)c3ccccc3)c(N)c2C#N)c1	.	.	.	-6	-0.3	.	-22	.	0.5	0.79
CN(C(=O)c1ccc2c(c1)CCO2)C(C)(C)C	9	5	-1.2	-4	-0.3	i	-7	-3.8	-2.8	0.66
Cn1c(=O)[nH]c2c(Cl)nccc21	3	8	2.7	-10	-0.2	i	-4	-5.0	1.7	0.64
CC(C)CCn1c(Br)nc2c1c(=O)n(CC(N)=O)c(=O)n2C	.	.	.	0	0.2	.	7	.	3.3	0.67
Cn1c(-c2ccc([N+](=O)[O-])cc2)nc2ccccc21	9	2	7.0	9	-4.9	.	19	-2.9	7.9	0.71
CCN(CC)C(=O)CSc1nnc(COc2ccccc2)n1CC	.	.	.	-2	0.2	.	-7	.	-0.7	0.74
Cc1c(Cl)c([N+](=O)[O-])nn1CCCC(=O)NC1CCCCC1	11	4	2.3	3	0.3	i	-4	-6.3	4.1	0.7
CSc1nnc(-c2cc(-c3ccc(C)cc3)nc3ccccc23)o1	.	.	.	2	0.7	.	-1	.	-20	0.64
CCOc1ccc(S(=O)(=O)NCC2(N3CCCCC3)CCCCC2)cc1	7	19	-1.6	.	.	i	.	3.8	3.0	0.71
Cc1ccc(C2=NN(C(=O)CSc3nc(N)cc(N)n3)C(c3ccco3)C2)cc1 (centres undefined)	-14	-30	8.9	-10	0.0	i	16	6.5	-2.2	0.69
COc1ccc(OC)c(CNc2ccc3c(c2)CCC3)c1	-4	1	-1.9	-9	0.1	i	70*	8.5	.	.
CCCCSc1nc(C)cc(SCC(=O)N/N=C/c2ccccc2)n1	14	12	1.0	-3	-0.5	i	9	-1.3	.	.
CC(CNCc1ccc2c(c1)OCO2)NCc1ccc2c(c1)OCO2 (centres undefined)	3	6	-4.5	0	.	i	12	-9.9	4.8	0.69
COc1cc(C(=O)OCC(=O)NC23CC4CC(CC(C4)C2)C3)cc(OC)c1OC	-7	-1	-3.0	.	.	i	.	-2.3	2.1	0.65
COc1ccc(C(=O)c2ccc(N3CCOCC3)cc2)c(OC)c1	.	.	.	-3	0.3	.	9	.	6.3	0.75

Four structures from above, ordered by SMILES length, largest number first:
SMILES	rRNA inh HTS	rRNA inh HTS OD600	rRNA inh HTS RFP	Beta cell apopt	A1 inh	FGF22 binding	T cruzi repl	MLL AF4-AF9 inh	UCH37 DUB inh	Ecoli growth
CCC(=O)c1ccc(OCC(O)CN2CCN(S(=O)(=O)c3ccc(NC(C)=O)cc3)CC2)cc1 (centres undefined)	-11	-15	-1.0	0	-0.1	i	-10	1.6	0.7	0.69
CCCCSc1nc(C)cc(SCC(=O)N/N=C/c2ccccc2)n1	14	12	1.0	-3	-0.5	i	9	-1.3	.	.
COc1ccc(OC)c(CNc2ccc3c(c2)CCC3)c1	-4	1	-1.9	-9	0.1	i	70*	8.5	.	.
CN(C(=O)c1ccc2c(c1)CCO2)C(C)(C)C	9	5	-1.2	-4	-0.3	i	-7	-3.8	-2.8	0.66

The list continues:
SMILES	rRNA inh HTS	rRNA inh HTS OD600	rRNA inh HTS RFP	Beta cell apopt	A1 inh	FGF22 binding	T cruzi repl	MLL AF4-AF9 inh	UCH37 DUB inh	Ecoli growth
CNC(=O)NC(=O)C(C)OC(=O)c1cc2c(s1)CCCCC2 (centres undefined)	.	.	.	1	0.8	i	-8	-5.4	1.4	0.69
CN(C#N)c1nccc(-c2cccs2)n1	8	1	-3.5	-1	-0.9	i	-5	1.1	-36	0.67
Clc1ccccc1CSc1ncn(-c2ccccc2)n1	.	.	.	-11	0.4	.	-1	.	2.8	0.71
COc1ccc(C(=O)CSc2nnc(CNc3ccc(C)cc3C)o2)cc1	.	.	.	0	-0.1	.	-14	.	2.7	0.73
N#Cc1c(NC(=O)CSc2nc(-c3ccco3)cc(C(F)(F)F)n2)sc2c1CCCC2	.	.	.	-2	-0.2	.	.	.	-1.7	0.83
COc1ccc(Cn2c(SCc3ccc(C)cc3)nc3cc(OC)c(OC)cc3c2=N)cc1Cl	.	.	.	110*	3.3	.	43	.	0.8	0.67
CCOC(=O)c1ccc(CN(Cc2ccccc2)S(=O)(=O)c2cccc([N+](=O)[O-])c2)cc1	.	.	.	4	-0.3	.	26	.	0.2	0.68
COc1ccc(SC[C@H](Cc2ccccc2)N2CC[C@@H](C)CCC2=O)cc1	-33	-39	3.0	-4	0.6	i	.	-0.4	1.4	0.78
CCCCc1nnc(NC(=O)c2ccc3[nH]c(=O)c(=O)[nH]c3c2)s1	5	3	-0.5	4	1.2	i	4	0.4	-9.8	0.69
CCc1ccccc1NC(=O)C1=CC(c2cccs2)=NS(=O)(=O)N1C	-11	-19	-10	4	.	i	-11	7.7	4.3	0.76
c1ccc2c(c1)nc(NCC1CCCO1)c1nnnn12 (centres undefined)	7	10	-5.8	.	0.3	i	0	0.5	-52	0.76
COc1cc(C(=S)N2CCC(C)CC2)ccc1O	.	.	.	.	0.7	.	-13	.	1.9	0.68
S=C(NCc1ccco1)N1CCN(c2nc(-c3ccccc3)cs2)CC1	5	-1	5.3	-7	-0.7	i	11	-2.2	2.9	0.68
COc1ccc(-c2nnc(SCC(=O)NCc3ccco3)n2C)cc1	.	.	.	-11	0.1	.	-4	.	0.1	0.71
COc1ccc(OCC(O)Cn2cnc(-c3ccc(Br)cc3)c2)cc1 (centres undefined)	.	.	.	7	-2.0	.	-9	.	2.4	0.73
ClC(/C=N/n1cnnc1)=C/c1ccccc1	6	12	0.7	-6	0.1	i	-43	-2.8	.	.
O=C(Cn1cnc2cc([N+](=O)[O-])ccc2c1=O)NC(=O)NCc1ccccc1	11	5	-1.0	5	0.6	i	62*	-6.5	3.5	0.7
NC(=O)CSCc1nc2ccccc2s1	11	10	3.0	-6	-0.1	.	-15	.	2.0	0.7
O=C(Nc1cccc(S(=O)(=O)C(F)F)c1)c1ccc(S(=O)(=O)N2CCCC2)cc1	-21	-25	-3.8	10	-0.2	i	7	-0.4	2.2	0.68
CCOC(=O)C1C(=O)C=C(C)C(C(=O)OCC)C1c1ccc(OC)cc1 (centres undefined)	.	.	.	-5	-0.4	.	17	.	3.8	0.68
Cc1ccc(C2=NOC(=O)/C2=C\c2ccc(C)o2)cc1	3	5	6.0	-10	0.5	i	-39	4.9	-3.3	0.72
CCCc1nnc(NC(=O)CCC(=O)N2CCN(C3CCCC3)CC2)s1	24	21	4.9	-9	0.1	i	25	-1.9	2.7	0.66
COc1ccc(OC)c2sc(NC(=O)C(C)C)nc12	-5	-10	-2.9	-5	0.3	i	-8	-7.4	-1.5	0.76
